Six1-Eya2 inh: qHTS Assay for Inhibitors of the Six1/Eya2 Interaction; Homeobox protein SIX1 (Homo sapiens) + Protein phosphatase EYA2 (Homo sapiens), …; AlphaScreen GST-Six1/His-Eya2 binding, biochemical; hits give low values; control for the full effect not named in the record; activity change, % (concentration not given with the values); hit rate 0.56% among 360,000; in the data active = activity change below about -65%; inconclusive = about -30% to -65%; inactive = above about -30%; also: % is scaled to controls: 0 for no effect and ±100 for the full control effect
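AlphaScreen with GST-Six1 and His-Eya2 (5X mix: 250 nM and 500 nM), glutathione donor and nickel acceptor beads; buffer 50 mM Tris pH 8.0, 300 mM NaCl, 1 mM TCEP; 1 h at 37 C in the dark.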
D2 agonist: Beta-Arrestin HTS for Positive Allosteric Modulators of the Human D2 Dopamine Receptor: Agonists. D(2) dopamine receptor (Homo sapiens), P14416. DiscoveRx PathHunter D2 beta-arrestin, luminescence, 90 min; 100% = 57 uM dopamine signal. activation, % (test concentration not listed). hit rate 0.084% among 360,000; in the data active = activation above about 40%; inconclusive = about 15% to 40%; inactive = below about 15%; also: compound concentration not given in the record; the text of the record calls up to 30% inactive
Target sequence (P14416 whole entry, looked up): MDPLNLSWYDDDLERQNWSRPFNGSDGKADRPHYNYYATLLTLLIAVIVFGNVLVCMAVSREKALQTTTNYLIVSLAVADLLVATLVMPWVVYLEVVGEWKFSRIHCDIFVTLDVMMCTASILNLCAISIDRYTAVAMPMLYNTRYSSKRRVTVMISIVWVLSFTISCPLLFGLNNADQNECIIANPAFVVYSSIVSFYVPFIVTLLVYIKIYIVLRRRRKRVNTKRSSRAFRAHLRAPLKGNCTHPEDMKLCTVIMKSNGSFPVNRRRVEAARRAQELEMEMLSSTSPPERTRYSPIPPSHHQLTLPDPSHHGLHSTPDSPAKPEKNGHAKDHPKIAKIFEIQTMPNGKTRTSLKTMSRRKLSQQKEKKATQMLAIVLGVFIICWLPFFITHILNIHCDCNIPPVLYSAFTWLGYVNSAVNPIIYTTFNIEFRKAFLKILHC
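Agonist mode: compounds alone added to overnight-plated D2 PathHunter cells for 90 min at 37 C, with 57 uM final dopamine (EC100) defining full response. Beta-arrestin recruitment detected by chemiluminescent reagent, read after 1 h at ambient temperature.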
TRPML1 agonist: qHTS for Agonists of the Human Mucolipin Transient Receptor Potential 1 (TRPML1); activation, % (test concentration not listed); TRPML1-expressing cells, Ca2+ dye fluorescence, FDSS; host cell line not named in the record; reference of the full effect not given here; Mucolipin-1 (Homo sapiens), Q9GZU1; hit rate 0.12% among 410,000; in the data active = activation above about 50%; inconclusive = about 30% to 50%; inactive = below about 30%; also: 0% is about no effect; the text of the record puts the active cut at 80%
Target sequence (Q9GZU1 whole entry, looked up): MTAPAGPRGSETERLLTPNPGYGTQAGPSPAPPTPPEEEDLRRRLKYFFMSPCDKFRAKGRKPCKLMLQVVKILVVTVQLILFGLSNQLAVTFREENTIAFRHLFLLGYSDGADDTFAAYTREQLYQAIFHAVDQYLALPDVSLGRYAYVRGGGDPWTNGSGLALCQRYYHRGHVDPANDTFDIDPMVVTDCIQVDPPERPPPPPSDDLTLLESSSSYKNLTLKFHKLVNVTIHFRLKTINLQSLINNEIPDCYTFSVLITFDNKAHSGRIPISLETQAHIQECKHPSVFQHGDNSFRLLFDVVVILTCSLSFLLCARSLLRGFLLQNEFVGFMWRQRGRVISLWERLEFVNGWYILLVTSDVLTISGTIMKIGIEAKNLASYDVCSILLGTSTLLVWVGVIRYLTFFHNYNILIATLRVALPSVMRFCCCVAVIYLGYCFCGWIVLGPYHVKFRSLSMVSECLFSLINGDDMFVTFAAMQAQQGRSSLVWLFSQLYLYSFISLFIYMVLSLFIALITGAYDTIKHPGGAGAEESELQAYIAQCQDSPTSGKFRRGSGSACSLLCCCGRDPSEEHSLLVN
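TRPML1-DL cells, Tet-induced overnight (~16 h, 37 degrees C), loaded 45-90 min at room temperature with Ca8 no-wash calcium dye plus quencher. FDSS fluorescence: 10 s baseline, compound pin-transfer, 110 s agonist read, then EC80 54-4 (4uM final) and 110 s antagonist read.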
D2 PAM: Beta-Arrestin HTS for Positive Allosteric Modulators of the Human D2 Dopamine Receptor: Potentiators. potentiation, % (concentration not given with the values). hit rate 0.23% among 360,000. DiscoveRx D2 beta-arrestin cells, luminescence, 90 min; 100% = 57 uM dopamine signal. AID 624464, 2012; active = potentiation of 50% or more; inconclusive = 30% to 50%; inactive = 30% or less;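 also: compound concentration not given in the record; tested on top of an EC20 dose of dopamine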
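PathHunter beta-arrestin assay in DiscoveRx D2 cells. Compounds were added with an EC20 of dopamine (50 nM final) for 90 min at 37 deg C. Luminescence was read 1 h after detection reagent, with 57 uM dopamine as the EC100 control.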
PINK1 modulator: A Quantitative High throughput Screen to Identify Chemical Modulators of PINK1 Expression; PINK1 immunofluorescence, high-content cytometry, 24 h; Potency, µM (series often up to 76.6 µM), for inactives: top-dose activation (PINK1 increase), most hits filed as activators; hit rate 0.2% among 410,000; AID 624263, 2012; active = well fitted activation curve with a large enough effect; inconclusive = small, poorly fitted or top-dose-only effect; inactive = flat fitted curve, though single readings scatter; cell line not stated here;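 also: potency is read from the fitted curve at half-maximal effect; % of control where 0% means no effect; nearly all actives have a fitted effect of over 65% in size; a mitochondrial uncoupler was the plate control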
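Stable cell line treated 24 h with compounds at 5 concentrations (CCCP controls), then fixed and immunostained for PINK1 plus nuclear and cell stains; PINK1 immunofluorescence quantified by laser-scanning microplate cytometry.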
TRPML1 inh: qHTS for Inhibitors of the Human Mucolipin Transient Receptor Potential 1 (TRPML1) | Mucolipin-1 (Homo sapiens), Q9GZU1 | TRPML1-inducible cells, Ca2+ dye fluorescence, FDSS; hits give low values; inhibition of EC80 agonist-evoked calcium signal | activity change, negative = inhibition, % (test concentration not listed) | hit rate 0.02% among 390,000; in the data active means activity change below about -50%; inconclusive means about -30% to -50%; inactive means above about -30%;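 also: stimulus is agonist 54-4 at its EC80 concentration; % is scaled to controls: 0 for no effect and ±100 for the full control effect; compound concentration not given in the record; the text of the record puts the active cut at -80%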
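Tet-induced TRPML1-DL cells loaded with Ca8 no-wash calcium dye were read kinetically on FDSS. Compound addition was followed by EC80 agonist 54-4 (4 uM final); inhibition was read over 110 s.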
Numbers without * were called inactive; ? = inconclusive; / = no result given; & = joins results of further samples; [ ] = dose if it differs, or a comment.

SMILES	Six1-Eya2 inh	D2 agonist	TRPML1 agonist	D2 PAM	PINK1 modulator	TRPML1 inh
Cc1ccc(CCNC(=O)c2ccc(NC(=O)N3CC(C)Sc4ccccc43)cc2)cc1 (stereo unspecified)	/	/	1.3	/	-0.8%	40.6
COC(=O)CC1(CC(N)=O)SCCS1	7.5	0.1	0.4	-13.8	-4.5%	33.2
Oc1ccc(Cc2ncc(C(F)(F)F)cc2Cl)cc1	-1.6	3.3	2.5	-0.3	1.6%	7.4
COC(=O)C[C@H]1c2cc(F)ccc2S(=O)(=O)N1c1ccc(N(C)C)cc1	-9.4	-4.7	0.2&-0.6	-3.7	-0.2%	-3.4
Cc1cc(C)c(NC(=O)C2CC(=O)N(C3CCCC3)C2)c(C)c1 (stereo unspecified)	5.9	-2.2	0.7	-2.9	1.0%	-4.1
COc1ccc(S(=O)(=O)n2nc(OC(=O)c3c(-c4ccccc4Cl)noc3C)cc2N)cc1	-72.4*	-5.7	0.8	-10.2	-1.5%	-0.9
COC(=O)c1cc(S(=O)(=O)NCc2ccc3c(c2)OCO3)cn1C	-2.6	1.3	-0.1	9.7	1.2%	-1.5
CCN(CC)c1c(C)nc2ccc(C(=O)N3CCN(C(=O)c4ccco4)CC3)cn12	15.4	-2.5	-0.4	1.0	0.9%	/
COc1ccc(C(C)=O)cc1CSc1nc2ccccc2c(=O)n1-c1cccc(C)c1	-9.0	1.0	5.3	-5.9	?	25.5
CCOC(=O)[C@]12CCCC=C1N(Cc1ccc3c(c1)OCO3)C(=O)[C@H](CC(=O)NCc1cccc(C(F)(F)F)c1)C2	-9.7	/	-0.2	/	1.1%	/
O=C(COc1ccc(Br)cc1Cl)NC(=O)NC1CCCC1	0.8	2.2	-1.2	4.5	14.6%	15.0
O=C(NCc1cccs1)c1ccc2c(c1)sc1nc(-c3ccccc3)cn12	/	/	2.8	/	1.1%	-0.2
CO/N=C/C1CCN(c2ncc(C(F)(F)F)cc2Cl)C1=O (stereo unspecified)	7.8	-1.2	1.7	-7.3	4.3%	7.4
Cc1c(C#N)c2ccccc2n1CC(=O)N1CCCc2ccccc21	1.2	-4.5	-0.7	-2.0	1.3%	-5.5
O=S(=O)(N[C@@H]1C[C@H]2CC[C@@H]1C2)c1cccs1	-0.9	-2.6	-0.3	-18.3	4.0%	1.4
COc1ccc(/C=N/S(=O)(=O)CCc2ccccc2)c(OC)c1	-8.3	-0.3	0.5	-11.1	1.1%	9.3
COc1cc(/C=N/NC(=O)Cn2ccc(C(F)(F)F)n2)cc(OC)c1OC	-1.4	-3.7	1.1	2.2	1.6%	-2.3
O=C(C1=C(O)C(=O)N(CC2CCCO2)C1c1cccnc1)c1ccco1 (stereo unspecified)	-1.7	1.0	-0.4	-10.6	-0.6%	-5.2
CCCc1cc(NCCCO)n2c(nc3ccccc32)c1C#N	-18.9	5.1	1.1	0.1	1.4%	-1.3
Cc1cc(/C=C2\NC(=S)NC2=O)c(C)n1-c1cccnc1	-1.3	-2.0	2.1	0.1	-0.1%	5.0

One compound at a time (already shown).
`COc1cc(/C=N/NC(=O)Cn2ccc(C(F)(F)F)n2)cc(OC)c1OC` is listed as Six1-Eya2 inh: -1.4; D2 agonist: -3.7; TRPML1 agonist: 1.1; D2 PAM: 2.2; PINK1 modulator: 1.6%; TRPML1 inh: -2.3
`COc1ccc(C(C)=O)cc1CSc1nc2ccccc2c(=O)n1-c1cccc(C)c1` is listed as Six1-Eya2 inh: -9.0; D2 agonist: 1.0; TRPML1 agonist: 5.3; D2 PAM: -5.9; PINK1 modulator: ?; TRPML1 inh: 25.5

Other results follow.
SMILES	Six1-Eya2 inh	D2 agonist	TRPML1 agonist	D2 PAM	PINK1 modulator	TRPML1 inh
Cc1cc(-c2ccccc2)c(C#N)c(N)n1	-1.0	-5.5	0.2	-40.2	10.1%	-3.0
CN(C)c1nc(N)c2ncc(=S)[nH]c2n1	-12.8	-1.3	0.9	-3.0	-0.1%	-9.5
COc1cccc(NS(=O)(=O)c2cc(-c3cnc(C4CC4)o3)ccc2C)c1	/	/	0.4	/	3.2%	-3.9
NC(c1ccccc1)c1ccncc1 (stereo unspecified)	-0.8	-0.3	0.9	0.1	-1.3%	3.5
COc1ccc(OC)c(NS(=O)(=O)c2ccc(N3CCCCS3(=O)=O)cc2)c1	/	/	-0.4	/	0.8%	-5.5
CC(=O)Nc1cc(S(=O)(=O)Nc2ccc(C)cc2)c(C)cc1C	-4.5	-2.1	1.0	-12.5	2.6%	4.7
CN1CCN(/N=C/c2ccc(N(c3ccccc3)c3ccccc3)cc2)CC1	-5.6	-6.3	0.0	-9.9	-2.3%	22.6
Cc1ccc2c(c1)CCO[C@]21O[C@H](CCO)C[C@H](O)[C@H]1O	3.1	-4.6	0.3	2.8	4.5%	0.6
COc1cc2c(cc1OC)C(C)N(C(=O)C1=NN(c3cccc(C)c3)C(=O)CC1)CC2 (stereo unspecified)	-4.6	-1.5	-0.9	-3.0	-0.3%	8.2
CCOc1ccc(NC(=O)Cn2c(=O)n(-c3ccccc3)c(=O)c3c4c(sc32)CCCC4)cc1	/	/	-0.7	/	1.8%	1.7
Cc1ccc(N2C(=O)c3ccc(C(=O)N4CCN(c5ccc(C)c(C)c5)CC4)cc3C2=O)cc1	-8.1	-1.1	-1.0	7.6	0.4%	-16.6
Cc1ccc(S(=O)(=O)c2cnc(SCC(=O)Nc3ccc4c(c3)OCCO4)[nH]c2=O)cc1	/	/	1.5	/	-1.3%	18.8
CCOc1cc(C(=O)Nc2ccc(S(=O)(=O)Nc3cc(OC)nc(OC)n3)cc2)cc(OCC)c1OCC	/	/	-0.9	/	2.3%	11.4
COc1ccc(/C(N)=N/OC(=O)C2CCCCC2)cc1OC	10.5	2.9	-0.2	-4.4	3.0%	-17.9
CN(Cc1ccccc1F)c1ccc(S(=O)(=O)N2CCCC2)cn1	6.8	1.8	1.2	-6.1	-0.5%	-3.0
CN(Cc1ccccc1)C(=O)c1ccccc1N(C)S(=O)(=O)c1ccccc1	5.6	-4.5	-0.2	8.4	0.9%	1.0
O=C1c2ccccc2C(=O)N1c1cccc2cccnc12	3.8	-1.3	1.0	-23.2	2.5%	17.9
O=C1NC(=S)NC1=Cc1ccc2c(c1)CCC2	-6.1	-2.4	5.7	-26.0	-3.6%	-7.0
C=C1C(=O)O[C@@H]2[C@H]3O[C@]3(C)CC/C=C(\C)CC[C@@H]12	2.3	-3.7	0.0	-3.2	3.2%	6.1
Cc1ccccc1NC(=S)N(Cc1cccs1)C1CCCCC1	-7.6	-4.4	-0.3	5.4	-0.3%	-8.2
C=CCSc1nc2sc3c(c2c(=O)[nH]1)CC(C)(CC)OC3 (stereo unspecified)	-1.4	-4.1	0.9	7.4	7.0%	7.9
CC1CCCC(C)N1C(=O)COC(=O)/C=C/c1ccc(Br)o1 (stereo unspecified)	-27.5	0.0	-0.4	-12.9	-2.6%	3.9
COc1ccc(NC(=O)COCc2cc(-c3ccc4c(c3)OCO4)on2)cc1	/	/	-0.5	/	-0.6%	3.0
CCOc1ccc(OCCNC(=O)c2oc3ccccc3c2COC)cc1	4.4	-0.5	4.5	1.9	1.9%	35.5
NC(=S)N/N=C1\CCOc2ccc(Cl)cc21	8.1	-4.5	-0.4	-25.8	0.4%	-1.5
O=S(=O)(NCc1ccc2c(c1)OCO2)c1cnc[nH]1	22.4	1.5	0.5	-3.3	1.8%	52.2
CCN(CC(=O)NCc1cccs1)C(=O)c1ccc(S(=O)(=O)Nc2ccccc2Cl)cc1	4.9	1.6	0.0	-5.3	-0.1%	-10.8
COc1cccc(CNC(=O)CSc2cc(=O)n(C)c3ccccc23)c1	2.1	-1.0	-0.6	-2.2	-0.5%	-13.7
Cc1sc2nc(COC(=O)c3cccc(OC(F)F)c3)[nH]c(=O)c2c1C	4.6	2.3	3.2	-0.3	5.8%	52.5
COc1ccc(CNC(=O)c2c(C)cc(=O)oc2C)cc1	0.7	2.1	0.5	-20.0	0.1%	-4.5
c1ccc(-c2nc3c(ccc4ccccc43)[nH]2)nc1	-6.8	-1.8	-0.8	-28.7	0.6%	-20.7
COc1cccc(S(=O)(=O)NCc2ccc(C(=O)N3CCN(Cc4ccccc4)CC3)cc2)c1	-1.6	2.0	0.6	-13.0	0.5%	-2.1
CCOc1ccc(NS(=O)(=O)c2c(C)nc3sc(C)c(C)n3c2=O)cc1	/	/	0.3	/	0.4%	-0.7
O=C(c1ccccc1)N1N=C(c2ccc(F)cc2)CC1c1ccc(F)cc1 (stereo unspecified)	0.7	4.5	0.1	0.9	1.5%	29.3
CN(C)c1ccnc2sc3c(=O)n(-c4ccccc4)cnc3c12	-2.8	1.5	-0.3	2.9	7.3%[38.3 µM]	28.7
O=C(OCC1CCCO1)c1ccc2c(c1)N(Cc1cccc(F)c1)C(=O)c1ccccc1S2(=O)=O (stereo unspecified)	/	/	4.2	/	3.0%	6.6
O=C(NCC12CC3CC(CC(C3)C1)C2)c1cc2nc(-c3ccc(Cl)cc3)cc(C(F)(F)F)n2n1	/	/	1.9	/	0.3%	-11.5
C/C(CC(=O)Nc1ccc(C)c(Cl)c1)=N\NC(=O)c1cccc(O)c1	-27.0	-4.6	-1.5	-25.4	1.0%	4.1
CCCCOc1ccc(C(=O)Nc2onc3c2CCCC3)cc1	/	/	-0.2	/	1.1%	-2.6
C[C@@H]1CN([C@@H](C)CO)C(=O)c2cc(NC(=O)C3CC3)ccc2O[C@@H]1CN(C)Cc1ccc(Cl)c(Cl)c1	-15.1	-3.1	0.4	/	11.9%	2.6
C=CCN(Cc1ccc(OC)c(OC)c1)C(=O)c1cc2cc(F)ccc2[nH]1	-10.4	6.0	/	-9.2	3.7%	/
O=C(COC(=O)c1ccco1)Nc1cc(S(=O)(=O)N2CCCCC2)ccc1Cl	-5.7	1.9	1.5	1.8	2.0%	13.1
CN(Cc1cn[nH]c1-c1ccc(-c2ccccc2)cc1)CC1CCOCC1	-5.2	-2.2	1.7	-17.2	-1.2%	28.3
O=C(O)c1cc(-c2ccc(/C=C3\NC(=O)N(c4ccc(Cl)cc4)C3=O)o2)ccc1Cl	-18.8	-1.9	-0.1	-9.3	3.1%	-11.8
Cc1ccc(SC(C)C(=O)N2CCCC2)cc1 (stereo unspecified)	-2.0	-2.6	0.2	-7.2	-2.1%[38.3 µM]	0.8
Cc1nnc(SCC(=O)Nc2sc3c(c2C(=O)c2ccccc2)CCCC3)s1	5.4	0.9	0.3	1.4	-2.5%	14.1
COc1ccccc1N1CCN(C2CCCN(Cc3ccccc3OCCO)C2)CC1 (stereo unspecified)	3.2	5.8	-0.3	-19.3	0.9%	-6.1
COc1ccc(Nc2ncnc3sc(-c4ccccc4)cc23)c(OC)c1	26.2	-3.4	-1.1	-15.3	-0.1%	1.2
Cc1cccc(C)c1OCC(=O)N/N=C/c1ccc2c(c1)OCO2	-2.4	-0.6	0.8	3.9	10.0%	23.7

Screening data: PubChem, National Center for Advancing Translational Sciences (NCATS)
